# Screening data (PubChem)
# TRPML1 agonist: qHTS for Agonists of the Human Mucolipin Transient Receptor Potential 1 (TRPML1); TRPML1-expressing cells, Ca2+ dye fluorescence, FDSS; host cell line not named in the record; reference of the full effect not given here; activation, % (test concentration not listed); hit rate 0.12% among 410,000; AID 624414, 2012; in the data active = activation above about 50%; inconclusive = about 30% to 50%; inactive = below about 30%; further: 0% is about no effect; the text of the record puts the active cut at 80%
# Target sequence (Q9GZU1 whole entry, looked up): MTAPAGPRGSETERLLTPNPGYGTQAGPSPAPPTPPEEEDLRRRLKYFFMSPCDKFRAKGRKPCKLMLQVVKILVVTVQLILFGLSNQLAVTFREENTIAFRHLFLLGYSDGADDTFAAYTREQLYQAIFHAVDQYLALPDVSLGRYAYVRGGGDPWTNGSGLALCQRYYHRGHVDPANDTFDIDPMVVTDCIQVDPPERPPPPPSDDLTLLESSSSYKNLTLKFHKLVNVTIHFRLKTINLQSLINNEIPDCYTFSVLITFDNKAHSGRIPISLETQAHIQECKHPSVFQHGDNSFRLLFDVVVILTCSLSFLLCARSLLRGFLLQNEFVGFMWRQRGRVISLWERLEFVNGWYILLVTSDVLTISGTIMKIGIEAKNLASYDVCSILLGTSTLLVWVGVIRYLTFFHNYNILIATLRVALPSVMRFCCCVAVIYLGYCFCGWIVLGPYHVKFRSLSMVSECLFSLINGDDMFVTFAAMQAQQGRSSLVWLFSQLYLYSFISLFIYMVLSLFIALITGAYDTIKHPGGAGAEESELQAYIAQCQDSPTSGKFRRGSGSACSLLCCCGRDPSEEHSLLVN
#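 Tetracycline-induced TRPML1-DL cells are seeded and incubated overnight before loading with a no-wash Ca2+ dye and quencher. Agonist activity is taken from the 110 s fluorescence read following compound pin-transfer on an FDSS, before EC80 54-4 challenge.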
# TRPV1 PAM: HTS Assay for Compounds that Act as Potentiators of the Vanilloid Receptor 1; potentiation, % at 8.33 µM; TRPV1-expressing cells, Fluo-8 calcium influx, capsaicin EC20 potentiation; host cell line not named in the record; control for the full effect not named in the record; AID 540277, 2011; Transient receptor potential cation channel subfamily V member 1 (Homo sapiens), Q8NER1; hit rate 0.02% among 320,000; active means potentiation above 80%; inconclusive means 30% to 80%; inactive means below 30%; further: 0% is about no effect
#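 Cells expressing TRPV1 were dye-loaded with Fluo-8 and read kinetically: 10 s baseline, 3 min after compound (agonist portion), then 2 min after EC20 capsaicin (allosteric enhancer portion). Calcium-bound dye fluorescence at 480/520 nm.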
# TRPML1 inh: qHTS for Inhibitors of the Human Mucolipin Transient Receptor Potential 1 (TRPML1); TRPML1-inducible cells, Ca2+ dye fluorescence, FDSS; stronger effect = lower value; inhibition of EC80 agonist-evoked calcium signal; activity change, negative = inhibition, % (test concentration not listed); hit rate 0.02% among 390,000; in the data active means activity change below about -50%; inconclusive means about -30% to -50%; inactive means above about -30%;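 further: stimulus is agonist 54-4 at its EC80 concentration; on the % scale 0 is the no-effect control and ±100 the full control effect; compound concentration not given in the record; the text of the record puts the active cut at -80%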
#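 Calcium fluorescence in TRPML1-DL cells induced overnight with Tet: a 110 s read after compound pin addition, then a 110 s antagonist read after challenge with 54-4 at 4 uM final (EC80).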
# D2 potentiator: Beta-Arrestin HTS for Positive Allosteric Modulators of the Human D2 Dopamine Receptor: Potentiators; D(2) dopamine receptor (Homo sapiens), P14416; DiscoveRx D2 beta-arrestin cells, luminescence, 90 min; 100% = 57 uM dopamine signal; potentiation, % (no concentration beside the values); hit rate 0.23% among 360,000; AID 624464, 2012; active = potentiation of 50% or more; inconclusive = 30% to 50%; inactive = 30% or less;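 further: compound concentration not given in the record; tested on top of an EC20 dose of dopamine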
# Target sequence (P14416 whole entry, looked up): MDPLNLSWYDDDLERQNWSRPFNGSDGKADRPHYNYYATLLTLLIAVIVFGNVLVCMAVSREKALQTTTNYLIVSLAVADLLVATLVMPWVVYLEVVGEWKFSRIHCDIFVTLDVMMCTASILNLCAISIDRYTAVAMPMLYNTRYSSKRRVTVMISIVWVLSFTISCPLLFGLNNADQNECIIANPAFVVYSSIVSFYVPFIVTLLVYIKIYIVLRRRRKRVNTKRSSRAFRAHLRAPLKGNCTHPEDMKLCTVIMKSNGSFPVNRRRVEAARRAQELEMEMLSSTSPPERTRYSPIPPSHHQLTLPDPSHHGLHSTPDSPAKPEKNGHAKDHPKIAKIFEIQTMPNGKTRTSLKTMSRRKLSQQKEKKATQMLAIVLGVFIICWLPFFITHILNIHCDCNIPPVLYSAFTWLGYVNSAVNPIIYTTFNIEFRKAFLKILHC
#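 PathHunter beta-arrestin assay in DiscoveRx D2 cells. Compounds were added with an EC20 of dopamine (50 nM final) for 90 min at 37 deg C. Luminescence was read 1 h after detection reagent, with 57 uM dopamine as the EC100 control.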
# CtBP-E1A inh: qHTS Assay for Inhibitors of the CtBP/E1A Interaction; hit rate 0.49% among 340,000; AID 651724, 2012; AlphaScreen GST-E1A/His-CtBP binding, 1536-well; stronger effect = lower value; control for the full effect not named in the record; activity change, % (concentration not given with the values); in the data active means activity change below about -65%; inconclusive means about -30% to -65%; inactive means above about -30%; further: on the % scale 0 is the no-effect control and ±100 the full control effect
#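 In 5 uL wells, 23 nL compound meets equimolar GST-E1A and His-CtBP (5X stock 125 nM each) for 2 h, 37 °C. Beads (5X, 50 ug/mL) then 1 h, 37 °C, dark.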
# Six1-Eya2 blk: qHTS Assay for Inhibitors of the Six1/Eya2 Interaction. Homeobox protein SIX1 (Homo sapiens) + Protein phosphatase EYA2 (Homo sapiens), …. AlphaScreen GST-Six1/His-Eya2 binding, biochemical; stronger effect = lower value; control for the full effect not named in the record. activity change, % (test concentration not listed). hit rate 0.56% among 360,000. AID 651725, 2012; in the data active = activity change below about -65%; inconclusive = about -30% to -65%; inactive = above about -30%; further: on the % scale 0 is the no-effect control and ±100 the full control effect; compound concentration not given in the record
#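 Homogeneous AlphaScreen proximity assay pairing GST-Six1 with His-tagged Eya2 (added as 5X mix: 250 nM and 500 nM) in 50 mM Tris pH 8.0, 300 mM NaCl, 1 mM TCEP. Glutathione donor and nickel acceptor beads; 1 h, 37 °C, dark.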
# The depositor's hits bear a star; ? = inconclusive; · = not tested or not shown; & = joins results of further samples.
1	O/N=C1\CCCc2ccc(Cl)cc21
2	C[C@H](CO)N1C[C@H](C)[C@@H](CN(C)C(=O)Nc2ccc3c(c2)OCO3)Oc2ccc(NC(=O)Nc3ccc4c(c3)OCO4)cc2C1=O
3	Cc1cc(/C=N/NC(=O)c2ccc(CN3CCOCC3)cc2)c(C)n1-c1ccccc1
4	CNCCNC[C@H](Cc1cccc2ccccc12)NCCc1ccccc1
5	Cn1c(N)c(C(=O)COC(=O)CSc2ccc(Cl)cc2)c(=O)n(C)c1=O
6	Cc1ccc(NC(=O)CCc2c(C)[nH]c(=O)c(C#N)c2C)cc1
Screen / compound no.,1,2,3,4,5,6
TRPML1 agonist,2.2,0.3,0.0,0.0,-0.7,-0.2
TRPV1 PAM,2,·,-8,·,11,-1
TRPML1 inh,21,11,-7,-7,-8,-14
D2 potentiator,0,-8,4,-21,-20,-11
CtBP-E1A inh,·,-7,-5,-8,5,-23
Six1-Eya2 blk,4,-15,-1,-5,-7,-14

7	COc1cc(OC)cc(-c2nc(-c3cccs3)no2)c1
8	CC(=O)Nc1ccc(S(=O)(=O)NCCC(=O)OCc2nnc(-c3ccccc3)o2)cc1
9	O=S(=O)(CC(O)CS(=O)(=O)c1ccc(Cl)cc1)c1ccccc1 (centres undefined)
10	O=S1(=O)CC(N2CCN(CCO)CC2)CN1Cc1cn(Cc2ccccc2)nn1 (centres undefined)
11	Cc1ccc(C)c(N2C(=O)CN=C2Nc2ccccc2Cl)c1
12	COc1ccc(N2C(=O)c3ccc(NC(C)=O)cc3C2=O)cc1
Screen / compound no.,7,8,9,10,11,12
TRPML1 agonist,-0.2,0.9,3.3,-0.4,-0.2,-1.0
TRPV1 PAM,5,?,-11,·,25,-1
TRPML1 inh,15,-9,-5,·,-1,-7
D2 potentiator,-6,-3,-3,·,0,6
CtBP-E1A inh,5,-3,12,2,-3,2
Six1-Eya2 blk,-1,-4,11,7,9,-1

13	Cc1cccc(C(=O)NC2CCN(S(=O)(=O)c3ccc(F)cc3)CC2)c1
14	CC(C)(C)NC(=O)Cn1c(Cl)nc2ccccc21
15	Cc1ccc(NC(=O)C2C3CCCCC32)cc1[N+](=O)[O-] (centres undefined)
16	Cc1ccc(C)c(NC(=O)C(=O)NCCCN2CCOCC2)c1
17	COC(=O)C1C2CC3c4[nH]c5cc(OC)ccc5c4CCN3CC2CC(OC(=O)CC(C)=O)C1OC (centres undefined)
18	COc1cc(NC(=O)c2cccs2)c(OC)cc1NC(=O)Cc1ccccc1
Screen / compound no.,13,14,15,16,17,18
TRPML1 agonist,-0.2,2.6,1.0,0.3&-0.4,4.7,1.4
TRPV1 PAM,-5,5,-11,8,·,-11
TRPML1 inh,-15,6,7,-6&3,-7,-4
D2 potentiator,0,-9,-4,-8,13,-3
CtBP-E1A inh,7,·,-14,23,-27,-6
Six1-Eya2 blk,1,6,-26,7,-27,-81*

19	CC12C(=O)N(Cc3ccco3)C(=O)C1C1c3ccccc3C2c2ccccc21 (centres undefined)
20	Cc1ccccc1NC(=O)CSc1nc(N)c(C#N)c(-c2cccs2)c1C#N
21	COc1cc(C(=O)Nc2cc(C(F)(F)F)ccc2N2CCOCC2)ccc1O
22	CCCCN(CC)C(=O)C1CCCN(S(=O)(=O)c2cccc3nsnc23)C1 (centres undefined)
23	COc1cc(Br)cc2cc(C(=O)NCC3CCCO3)c(=O)oc12 (centres undefined)
24	O=C(Cn1nnc2ccccc21)OCC(=O)c1ccc(F)cc1
Screen / compound no.,19,20,21,22,23,24
TRPML1 agonist,0.1,0.1,-0.3,-0.4,0.2,0.5
TRPV1 PAM,1,-17,2,-21,5,3
TRPML1 inh,-5,11,-26,83,-11,-6
D2 potentiator,21,-3,-18,-1,-7,-4
CtBP-E1A inh,0,-6,-5,14,9,5
Six1-Eya2 blk,0,-15,-10,6,3,10

# Record cards, from the list above.
# CC12C(=O)N(Cc3ccco3)C(=O)C1C1c3ccccc3C2c2ccccc21 (centres undefined) reads TRPML1 agonist: 0.1; TRPV1 PAM: 1; TRPML1 inh: -5; D2 potentiator: 21; CtBP-E1A inh: 0; Six1-Eya2 blk: 0
# COc1cc(Br)cc2cc(C(=O)NCC3CCCO3)c(=O)oc12 (centres undefined) reads TRPML1 agonist: 0.2; TRPV1 PAM: 5; TRPML1 inh: -11; D2 potentiator: -7; CtBP-E1A inh: 9; Six1-Eya2 blk: 3

# (list continues)
25	Cc1sc2ncn(-c3ccccc3)c(=O)c2c1C
26	O=C(Cc1cccs1)Nc1nc2ccccc2s1
27	CCOc1ccc2nc(SCC(=O)Nc3ccc4[nH]c(=O)[nH]c4c3)[nH]c2c1
28	Cc1ccc(C)c(NC(=S)/C(=C(\[O-])c2ccc(OC(F)F)cc2)[n+]2ccccc2)c1
29	COc1ccc(NC(=O)C2CCCCN2S(=O)(=O)c2ccc(F)cc2)c(OC)c1 (centres undefined)
30	CCOC(=O)NC(Nc1cc(C)ccn1)(C(F)(F)F)C(F)(F)F
Screen / compound no.,25,26,27,28,29,30
TRPML1 agonist,-0.7,-1.7,-0.5,-0.4,-1.2,-0.1
TRPV1 PAM,27,16,-10,?,2,-3
TRPML1 inh,-4,14,-4,0,0,3
D2 potentiator,-2,27,6,-4,-11,-3
CtBP-E1A inh,2,3,-12,-2,-12,9
Six1-Eya2 blk,8,3,-15,8,-1,17

31	CCOc1ccc(/C=C(/C#N)c2nnc(N3CCOCC3)n2-c2ccccc2)cc1OC
32	COc1ccc(OC)c(Nc2nc(-c3cccc([N+](=O)[O-])c3)nc3ccccc23)c1
33	Cc1cc(C(F)F)nn1CC(=O)NC1CCCCCC1
34	CCOc1cc(C(=O)N2CCN=C2SC)cc(OCC)c1OCC
35	CCOC(=O)/C(=C\c1ccc(N2CCC(c3ccccc3)=N2)cc1)C(C)=O
36	COc1ccc(CC(=O)OCC(=O)NC2CCCC(C)C2C)cc1OC (centres undefined)
Screen / compound no.,31,32,33,34,35,36
TRPML1 agonist,-0.7,0.0,0.9,0.7,?,0.0
TRPV1 PAM,·,18,7,7,·,·
TRPML1 inh,4,-2,-2,9,1,3
D2 potentiator,-1,-4,-7,-19,-19,1
CtBP-E1A inh,0,-4,-1,9,8,-4
Six1-Eya2 blk,8,10,2,4,10,0

37	COc1ccc(CCNS(=O)(=O)c2ccc(Cl)cc2)cc1OC
38	Cc1cccc(NC(=O)c2cccc(C(=O)Nc3cccc(C)c3)c2)c1
39	CNC(=O)Cn1nc(C)c2ccccc2c1=O
40	Cc1cc(C(=O)Nc2cccc([N+](=O)[O-])c2C)cs1
41	Cc1ccc(NC(=O)C2CCN(S(=O)(=O)c3cccs3)CC2)cc1
42	Cc1cc(NS(=O)(=O)c2ccccc2)ccc1NS(=O)(=O)c1ccccc1
Screen / compound no.,37,38,39,40,41,42
TRPML1 agonist,0.5,2.7,-0.8,-0.5,-0.4&2.3,0.6
TRPV1 PAM,2,-2,·,0,-12,·
TRPML1 inh,35,6,2,-5,-16&33,0
D2 potentiator,-2,-5,-5,-6,-3,-2
CtBP-E1A inh,-1,-7,1,1,-10,2
Six1-Eya2 blk,4,13,2,3,4,1

43	Cc1ccc(/C=N/NC(=O)c2ccco2)cc1
44	CC(C)(C)n1cnc2cc(NC(=O)c3ccccc3)ccc21
45	CC(C)(C)Cc1nnc(NC(=O)c2ccc3c(c2)OCO3)s1
46	Cc1cc(N2C(=O)c3ccccc3C2=O)n(C)n1
47	COc1cccc2cc(C(=O)NC3CC(C)(C)NC(C)(C)C3)c(=O)oc12
48	O=C(N=C1SC2CS(=O)(=O)CC2N1Cc1ccccc1)C1CC1 (centres undefined)
Screen / compound no.,43,44,45,46,47,48
TRPML1 agonist,-0.4,-0.4,0.0,-0.4,-0.7,-0.4
TRPV1 PAM,-40,29,0,-1,·,·
TRPML1 inh,-10,-12,-5,17,-8,4
D2 potentiator,-3,-6,-3,0,-10,-5
CtBP-E1A inh,12,-2,2,9,0,-5
Six1-Eya2 blk,6,-7,7,12,-1,-3

49	Cn1c(SCC(=O)NCc2ccccc2)ncc(C(=O)Nc2ccccc2)c1=O
50	Cc1cccc(Cn2ncc(Cl)c(Cl)c2=O)c1
51	COc1cc(C(c2c(C)n(C)n(-c3ccccc3)c2=O)c2c(C)n(C)n(-c3ccccc3)c2=O)cc(Br)c1O
52	Cn1c(=O)c2c(ncn2CC(=O)OCC(=O)NNC(=O)c2ccc(Cl)cc2)n(C)c1=O
53	C=C(Cl)COc1ccc2c(CCC)cc(=O)oc2c1
54	Cn1c(=O)c2ccccc2n(CC(=O)Nc2ccc3c(c2)OCCO3)c1=O
Screen / compound no.,49,50,51,52,53,54
TRPML1 agonist,0.8,0.4,0.6,-0.7,1.4,0.1
TRPV1 PAM,-19,2,-1,0,-15,?
TRPML1 inh,-16,2,-7,-5,7,-3
D2 potentiator,-17,2,-5,-53,-2,-8
CtBP-E1A inh,1,14,-8,12,10,-6
Six1-Eya2 blk,8,-1,0,-1,14,6

# Single entries from above:
# Under TRPML1 agonist, compound 51 reads 0.6
# Under Six1-Eya2 blk, compound 52 reads -1
# Under CtBP-E1A inh, compound 50 reads 14
# Under TRPML1 inh, compound 53 reads 7
# Under TRPML1 inh, compound 54 reads -3
# Under Six1-Eya2 blk, compound 49 reads 8

# Results in sequence from above:
# TRPML1 inh for entries 49–54: -16, 2, -7, -5, 7, -3
# TRPV1 PAM for entries 49–54: -19, 2, -1, 0, -15, ?

# Later entries:
55	CCCNC(=O)c1ccc2snnc2c1
56	CCN(CC)C(=O)CCCc1c[nH]c2ccccc12
57	Cc1cc(C)n(C(=O)c2ccc(S(=O)(=O)N3CCCC3)cc2)n1
58	O=C(CCc1ccccc1)NN1C(=O)C2C3C=CC(C3)C2C1=O (centres undefined)
59	O=C(O)c1c(-c2ccccc2)cnc2ccccc12
60	COc1ccc(C(=O)NC(=S)NNC(=O)c2ccc(NC(=O)C(C)C)cc2)cc1
Screen / compound no.,55,56,57,58,59,60
TRPML1 agonist,-0.1,-0.2,-0.1,0.4,-0.5,4.0
TRPV1 PAM,-8,-2,11,-4,·,23
TRPML1 inh,-16,6,12,-2,20,13
D2 potentiator,-5,0,-28,-7,-1,-12
CtBP-E1A inh,-2,0,3,0,-6,1
Six1-Eya2 blk,-8,-1,-5,8,-3,-22

61	CCn1c(N)c(C(=O)NCCOC)sc1=S
62	CS(=O)(=O)c1cccc(C(=O)Nc2cccc(S(=O)(=O)N3CCCC3)c2)c1
63	O=C(Nc1cccc(NC(=O)c2cccnc2Cl)c1)c1ccco1
64	COc1cc(CNn2c(C)n[nH]c2=S)cc(Cl)c1OCC(=O)NC(C)(C)C
Screen / compound no.,61,62,63,64
TRPML1 agonist,2.4,0.5,0.0,2.2
TRPV1 PAM,2,-16,2,8
TRPML1 inh,19,-6,-7,7
D2 potentiator,-6,-5,13,-6
CtBP-E1A inh,-1,-10,5,0
Six1-Eya2 blk,-5,-4,-1,-2
